# Cruzain inh noDet – qHTS Assay for Promiscuous and Specific Inhibitors of Cruzain (without detergent); Potency, µM, without a hit: max response, negative = inhibition, most hits filed as inhibitors; purified cruzain, Z-FR-AMC fluorescence, no detergent; Cruzipain (Trypanosoma cruzi), P25779; actives 2.3% (n = 200,000); AID 1476, 2009;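 also: plate controls were enzyme without inhibitor for no effect and buffer without enzyme for full effect; nearly all actives have a fitted effect of over 40% in size; top concentration of the series not given in the record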
# Target sequence (P25779 123-467 limits assumed): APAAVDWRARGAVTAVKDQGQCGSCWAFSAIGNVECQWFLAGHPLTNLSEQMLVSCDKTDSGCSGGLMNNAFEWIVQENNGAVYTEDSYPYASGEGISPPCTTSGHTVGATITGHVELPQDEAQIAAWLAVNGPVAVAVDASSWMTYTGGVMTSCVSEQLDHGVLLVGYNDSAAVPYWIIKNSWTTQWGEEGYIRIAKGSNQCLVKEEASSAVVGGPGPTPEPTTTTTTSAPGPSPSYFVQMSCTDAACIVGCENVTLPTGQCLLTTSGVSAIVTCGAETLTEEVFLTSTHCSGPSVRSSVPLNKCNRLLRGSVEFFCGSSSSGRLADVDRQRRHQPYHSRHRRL
#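 Purified cruzain at 1.5 nM, pre-incubated 15 min with compound at room temperature in 100 mM sodium acetate pH 5.5, 5 mM DTT, 0.00005% Triton X-100. Reaction started with 2 uM Z-FR-AMC; AMC fluorescence increase over 60 s gives rate.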
# SARS PLP yeast – qHTS of Yeast-based Assay for SARS-CoV PLP | AID 485353, 2010 | S. cerevisiae expressing SARS-CoV PLpro, growth rescue; control for the full effect not named in the record | actives 0.19% (n = 330,000) | Potency, µM (highest dose often 32.9 µM), without a hit: at the highest dose activity, positive = growth rescue; active means well fitted rising curve with a large enough effect; inconclusive means small, poorly fitted or top-dose-only effect; inactive means no such curve, though single readings can be large or run the other way; also: 0% is about no effect; nearly all actives have a fitted effect of over 55% in size; growth read by luminescence after 48 h
# Cruzain Triton – qHTS Assay for Promiscuous and Specific Inhibitors of Cruzain (with detergent); purified cruzain, Z-FR-AMC fluorescence, 0.01% Triton; AID 1478, 2009; actives 0.43% (n = 200,000); Potency, µM, for inactives: max response, negative = inhibition, hits mostly inhibitors;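 also: plate controls were neutral wells for no effect and buffer without enzyme for full effect; nearly all actives have a fitted effect of over 40% in size; top concentration of the series not given in the record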
#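 15 min RT preincubation of 1.5 nM cruzain with compound, then 2 uM Z-FR-AMC added; kinetic AMC fluorescence, 60 s delta. Triton X-100 0.01%, pH 5.5.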
# MARV entry inh – qHTS for inhibitors of binding or entry into cells for Marburg Virus | Marburg virus pseudotyped entry inhibition, cell reporter; control for the full effect not named in the record; about a third of the inactives were read at about 46 µM | Potency, µM (highest dose often 37.8 µM), without a hit: at the top dose activity change, negative = inhibition, actives largely listed as inhibitors | actives 1.8% (n = 300,000) | AID 540276, 2011; active = well fitted inhibition curve with a large enough effect; inconclusive = small, poorly fitted or top-dose-only effect, or effect the other way; inactive = flat fitted curve, though single readings scatter; tested in HEK293 cells; about a fifth of its hits are not listed in these tables; also: % is scaled to controls: 0 for no effect and ±100 for the full control effect; luciferase read-out
# NS1 function inh – qHTS Assay for Inhibitors of Influenza NS1 Protein Function | S. cerevisiae slowed by influenza A NS1, growth recovery by OD600 | Potency, µM (top dose mostly 46.1 µM), without a hit: at the highest dose activity, positive = more growth | actives 0.4% (n = 270,000) | AID 2326, 2010; active means well fitted rising curve with a large enough effect; inconclusive means small, poorly fitted or top-dose-only effect; inactive means no such curve, though single readings can be large or run the other way; also: nearly all actives have a fitted effect of over 50% in size
#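 Read-out: OD600 growth recovery of NS1-expressing budding yeast. Cells grown overnight at 30C in -URA glucose medium, washed, resuspended and diluted 1:100 in 2% galactose assay medium, pH 6.0. Same strain lacking NS1 served as positive control.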
# LASV entry inh – qHTS for Inhibitors of binding or entry into cells for Lassa Virus | Lassa virus pseudotype entry inhibition, cell reporter; control for the full effect not named in the record | Potency, µM (top dose mostly 37.9 µM), for inactives: at the highest dose activity change, negative = inhibition, usual class: inhibitors | actives 1.2% (n = 300,000) | AID 540256, 2011; active means well fitted inhibition curve with a large enough effect; inconclusive means small, poorly fitted or top-dose-only effect, or effect the other way; inactive means flat fitted curve, though single readings scatter; tested in HEK293 cells; also: % is scaled to controls: 0 for no effect and ±100 for the full control effect; nearly all actives have a fitted effect of over 50% in size; luciferase read-out
# 2A StopGo – High Throughput Screening for Foot and Mouth Disease Virus Antivirals; human cells with a luciferase reporter of 2A StopGo recoding; control for the full effect not named in the record; Potency, µM (titrated, usually from 57.9 µM), for inactives: top-dose signal change, negative = less light; actives 1.2% (n = 410,000); AID 1159524, 2015; active = well fitted falling curve with a large enough effect; inconclusive = small, poorly fitted or top-dose-only effect; inactive = no such curve, though single readings can be large or run the other way; tested in HEK293T cells; also: % is scaled to controls: 0 for no effect and ±100 for the full control effect; nearly all actives have a fitted effect of over 45% in size; luciferase light after 4 h
# RE007 growth inh – qHTS Assay for Inhibitors of the HIV-1 protein Vpr | S. pombe RE007 Vpr strain, BacTiter-Glo ATP luminescence, 24 h; control for the full effect not named in the record | Potency, µM (titrated, usually from 92.2 µM), without a hit: at the top dose activity change, negative = less growth | actives 0.21% (n = 360,000) | AID 651644, 2012; active = well fitted falling curve with a large enough effect; inconclusive = small, poorly fitted or top-dose-only effect; inactive = no such curve, though single readings can be large or run the other way;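 also: % is scaled to controls: 0 for no effect and ±100 for the full control effect; nearly all actives have a fitted effect of over 50% in size; the assay follows cell death caused by Vpr and the record does not say whether a fall means rescue or toxicity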
#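 Fission yeast strain RE007, carrying one chromosomally integrated HIV-1 vpr copy, was seeded at OD 0.01 in PMG+AL medium with 23 nL pinned compound. After 24 h at 30 °C and 99% humidity, viability was read by BacTiter-Glo luminescence.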
# Active calls of the source: *; ? = inconclusive; . = no result given; & = joins results of further samples; [ ] = dose if it differs, or a comment. Unless noted, calls follow the shape of the dose curve; as a rule, active = well fitted curve in the direction sought with a large enough effect; inconclusive = small, poorly fitted or top-dose-only effect, or another doubt; inactive = no such curve, though single readings can be large; an effect the other way counts as inactive or inconclusive. Potency is read from the fitted curve at half-maximal effect. This is a random part of the collection, and some 4.7% of all compounds hit somewhere here.
(1) COc1ccc(S(=O)(=O)NC(CC(=O)N2CCc3ccccc32)c2ccco2)cc1 (stereo unspecified)
(2) COc1ccc(OC)c(-n2c(-c3cccc(C)c3)n[nH]c2=S)c1
(3) CC(C)CCn1c(=O)c2ccccc2n2c(CCl)nnc12
(4) N#Cc1c(N2CCN(C(=O)c3ccco3)CC2)nc(-c2ccccc2)c2c1CCCC2
(5) C/C=C/Cn1c(SCc2ccccc2)nc2c1c(=O)[nH]c(=O)n2C
(6) CCOC(=O)C(Oc1ccc(=O)[nH]n1)C(C)=O (stereo unspecified)
(7) CCNC(=S)Nc1cccc(S(=O)(=O)NC2=NCCC2)c1
(8) CCN(CC(=O)Nc1c(F)cccc1F)C(=O)C1CC1

assay / compound,1,2,3,4,5,6,7,8
Cruzain inh noDet,-12%,.,.,2%,-8%,2%,.,.
LASV entry inh,-22%,-6%,?,?,13µM*,?,19%,4%
NS1 function inh,-6%,-8%,0%,16%,-16%,-2%,.,.
2A StopGo,41%[activator],-12%,32µM*,?,?,12%,7%,-13%
Cruzain Triton,-2.9%,.,.,-17%,-5.4%,5.6%,.,.
MARV entry inh,?,-14%[46.1 µM],?,?,?,14%,5%[46.1 µM],-2%
RE007 growth inh,-16%,17%,0%,3%,-1%,8%,6%,4%
SARS PLP yeast,-5%,0%,1%,-25%,8%,-1%,1%,-6%

(9) CN(C)c1nc(N)c([N+](=O)[O-])c(NCc2ccccc2)n1
(10) CCCCN(CC)CCNC(=O)c1cc2c(=O)oc3ccc(C)cc3c2s1
(11) CC(C)(C)OC(=O)NCCC(=O)Oc1ccc2ccc(=O)oc2c1
(12) Cc1nc(SCC(=O)Nc2cccc(Cl)c2)n[nH]1
(13) CCc1ccc(C(=O)Nn2cnc3ccccc3c2=O)cc1
(14) Cc1cccn2c(=O)c(/C=C(\C#N)S(=O)(=O)c3ccccc3)c(N3CCC(C(N)=O)CC3)nc12
(15) CCN(CC)C(=O)Oc1nnc(SC(C)C)n1-c1ccc(Cl)c(Cl)c1
(16) Cc1ccc[n+](-c2nc([O-])sc2C=O)c1

assay / compound,9,10,11,12,13,14,15,16
Cruzain inh noDet,-4%,-1%,7%,-4%,.,?,.,.
LASV entry inh,27%,7%[46.1 µM],0%,7%,?,-6%,?,-3%
NS1 function inh,3%,.,-42%,-12%,-4%,7%,-2%,.
2A StopGo,-24%,-20%,-8%,0%,5%,9%,-10%,-5%
Cruzain Triton,-5.5%,-0.5%,-1.9%,2.1%,.,-2.8%,.,.
MARV entry inh,5%,15%[46.1 µM],5%&5%,13%,5%[46.1 µM],-6%,?,-11%[46.1 µM]
RE007 growth inh,20%,.,14%,-11%,27%,10%,-1%,-19%
SARS PLP yeast,8%,.,-9%,-3%,-1%,9%,-1%,1%

(17) O=C(CCN1C(=O)[C@@H]2Cc3ccccc3CN2C1=O)N[C@H](Cc1ccccc1)C(=O)O
(18) COc1ccccc1NC(=O)Cn1nc(-c2ccc3c(c2)OCCO3)ccc1=O
(19) O=C(NC1CCCC1)c1cnn2c(C(F)(F)F)cc(-c3ccco3)nc12
(20) COc1ccc(Cn2c(=S)[nH]c3cc(C(=O)N4CCCCC4)ccc3c2=O)cc1
(21) O=c1c2ccccc2c(-c2ccc(O)cc2)nn1-c1cccc(C(F)(F)F)c1
(22) Clc1ccc2c(N/N=C/c3cccc(Br)c3)ccnc2c1
(23) O=C(CCN1C(=O)/C(=C/c2ccccc2Cl)SC1=S)NC1=NCCS1
(24) COc1ccc(N(C)C(=O)c2cn(CC(C)C)c(=O)c3cc(OC)c(OC)cc23)c(OC)c1

assay / compound,17,18,19,20,21,22,23,24
Cruzain inh noDet,.,.,-12%,.,0%,2%,.,.
LASV entry inh,.,.,-23%[14.3 µM],.,?,?,-14%,.
NS1 function inh,0%,6%,-43%,-2%,-25%,-36%,.,-2%
2A StopGo,-14%,-4%,-19%,-11%,40µM*,?,-8%,-24%
Cruzain Triton,.,.,-11%,.,-7.0%,?,.,.
MARV entry inh,.,.,?,?,?,?,-10%[46.1 µM],.
RE007 growth inh,-3%,6%,9%,-4%,.,-9%,3%,1%
SARS PLP yeast,1%,0%,3%,0%,-88%,-31%,-2%,4%

(25) COCCn1c(CN2CCc3ccccc3C2)nc2c1c(=O)n(C)c(=O)n2C
(26) Cc1nc(NCCc2ccc(F)cc2)c(C#N)c(C)c1[N+](=O)[O-]
(27) COc1ccc(NC(=O)CSc2nc(-c3ccc(OC)cc3)cc(=O)[nH]2)cc1
(28) CCCCN(CC)CCNC(=O)CCn1cnc2onc(-c3ccc(F)cc3)c2c1=O
(29) N=c1c2c(ncn1Cc1ccco1)Oc1c(ccc3ccccc13)C2c1ccccc1 (stereo unspecified)
(30) CCn1c(=N)c(C(=O)OC)cc2c(=O)n3ccccc3nc21
(31) O=C(Nc1cccc2ncccc12)C(Cl)(Cl)Cl
(32) Cn1cc(CN2CCc3c([nH]c4ccccc34)C2C(C)(C)C)cn1 (stereo unspecified)

assay / compound,25,26,27,28,29,30,31,32
Cruzain inh noDet,.,3%,10%,-15%,?,-79%,6%,.
LASV entry inh,3%,-40%,13%[46.1 µM],11%[46.1 µM],?,.,2%,?
NS1 function inh,-2%,-1%,.,.,?,-8%,11%,6%
2A StopGo,?,-20%,15%,-16%,-25%,.,-8%,-23%
Cruzain Triton,.,-5.1%,8.4%,-2.1%,-13%,0.2µM*,1.6%,.
MARV entry inh,-6%[46.1 µM],?,5%[46.1 µM],.,?,.,-3%,?
RE007 growth inh,9%,-1%,.,.,18%,.,0%,2%
SARS PLP yeast,1%,-11%,.,.,-35%,3%,4%,0%

(33) COc1ccc(-n2cc(-c3ccccc3)[nH]c2=S)c(OC)c1
(34) Cc1nc(CC(=O)Nc2cc(Cl)ccc2C)cs1
(35) O=C(Cn1c(=O)n(-c2ccccc2Cl)c(=O)c2sc3ccccc3c21)NC1CCCC1
(36) CC(C)(C)c1ccc(C(=O)NCC(c2ccco2)S(=O)(=O)c2ccccc2)cc1 (stereo unspecified)
(37) Cc1ccccc1Nc1n[nH]c(C)c1[N+](=O)[O-]
(38) CCOC(=O)N1CCN(C(=S)Nc2cccc(C)c2C)CC1
(39) CC(=O)Nc1ccc(CCNC(=O)c2ccc3ccccc3c2O)cc1
(40) CCOC(=O)C1(CCc2ccccc2)CCN(Cc2ccc3c(c2)OCCO3)CC1

assay / compound,33,34,35,36,37,38,39,40
Cruzain inh noDet,.,-11%,13%,9%,-15%,4%,.,.
LASV entry inh,.,0%[46.1 µM],17%[46.1 µM],-30%[46.1 µM],5%,1%,1µM*,?
NS1 function inh,-12%,.,.,.,-29%,1%,.,1%
2A StopGo,?,-7%,-12%,-25%,13%,-5%,3%,?
Cruzain Triton,.,-0.8%,0.5%,-3.0%,-1.0%,-2.5%,.,.
MARV entry inh,.,-2%[46.1 µM],10%[46.1 µM],.,?,?,?,?
RE007 growth inh,2%,.,.,.,-8%,-1%,-6%,-22%
SARS PLP yeast,1%,.,.,.,-14%,-10%,.,-2%

# Record cards, from the list above. Values in the order: Cruzain inh noDet | LASV entry inh | NS1 function inh | 2A StopGo | Cruzain Triton | MARV entry inh | RE007 growth inh | SARS PLP yeast
# Listed for CCOC(=O)C1(CCc2ccccc2)CCN(Cc2ccc3c(c2)OCCO3)CC1 : . | ? | 1% | ? | . | ? | -22% | -2%
# Listed for CCOC(=O)N1CCN(C(=S)Nc2cccc(C)c2C)CC1 : 4% | 1% | 1% | -5% | -2.5% | ? | -1% | -10%
# Listed for COc1ccc(-n2cc(-c3ccccc3)[nH]c2=S)c(OC)c1 : . | . | -12% | ? | . | . | 2% | 1%

# Further structures.
(41) O=C(CSc1nnc(COc2ccc(Cl)cc2Cl)o1)Nc1ccccn1
(42) OCCC1CN(Cc2ccccc2O)CCN1CCCc1ccccc1 (stereo unspecified)
(43) O=C1c2ccccc2CSc2c(O)cccc21
(44) O=C(Nc1ccccc1F)C1CC1c1ccccc1 (stereo unspecified)
(45) CC1CCN(c2nc3ccc(C(=O)NCCc4ccc(S(N)(=O)=O)cc4)cc3s2)CC1
(46) Cn1nccc1C(=O)N(CCN1CCCCC1)CC1CCCN(C2CCCC2)C1 (stereo unspecified)
(47) CCOC(=O)C1=C(CNCc2ccccc2)NC(=O)NC1c1ccc(C)cc1 (stereo unspecified)
(48) CC(C)CC(C)N (stereo unspecified)
(49) COc1ccc(C(=O)N2CCCCC2CCN2CCCCC2)cc1 (stereo unspecified)
(50) Cn1c(Sc2ccc([N+](=O)[O-])cc2C(F)(F)F)nnc1-c1ccccc1

assay / compound,41,42,43,44,45,46,47,48,49,50
Cruzain inh noDet,.,.,.,2%,-28%,.,-16%,-8%,-2%,-1%
LASV entry inh,0%,.,7%[46.1 µM],-5%,28%[46.1 µM],0%,-16%[46.1 µM],.,-1%[46.1 µM],-15%
NS1 function inh,-67%,-25%,.,-3%,.,-4%,.,.,.,1%
2A StopGo,2%,-5%,-11%,17%,-6%,51%[activator],-22%,-25%,-14%,0%
Cruzain Triton,.,.,.,-3.9%,-2.0%,.,-4.4%,1.5%,0.0%,-1.7%
MARV entry inh,-1%,.,-13%[46.1 µM],8%,1%[46.1 µM],?,-24%[46.1 µM],.,-28%[46.1 µM],-11%
RE007 growth inh,1%,-6%,1%,5%,.,-10%,.,19%,.,0%
SARS PLP yeast,-4%,?,.,6%,.,-8%,.,-2%,.,-4%

# Compound activity as filed in PubChem BioAssay.
